Bioassay records as filed in PubChem BioAssay.
PrP 5UTR inh: suppresses PrP 5' UTR mRNA reporter expression; cell-based PrP 5' UTR mRNA reporter, plate reader; inhibition, % (no concentration beside the values); actives 0.35% (n = 340,000);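 active = every replicate at 50% or more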;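 note: 0 = median of the neutral control wells; tested in H4 reporter cells; numbers are from one replicate; inactives centre near -14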
BJeLR lethal: kills HRASV12-expressing BJeLR cells. BJeLR (HRASV12) viability, CellTiter-Glo ATP luminescence, 48 h; reference of the scale not given here. actives 0.17% (n = 300,000). AID 1554. inhibition, % (concentration not given with the values);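 active = replicate mean above 50%; inconclusive = above 50% but judged a plate artefact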;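 note: 50 nL library stock added to about 25 µL; numbers are from one replicate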
Mtb hypoxia inh: inhibitors of hypoxia-regulated fluorescent reporter in Mycobacterium tuberculosis | M. tuberculosis hypoxia-regulated fluorescent reporter, fluorescence | fluorescence inhibition, % (test concentration not listed) | actives 0.1% (n = 300,000) | AID 1159583;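 active = 35 to 45% if threefold the growth effect, above 45% if 1.5-fold the growth effect; inactive = the rest, general growth blockers included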;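 note: wells of about 50 µL received 100 nL stock; 0% = vehicle wells and 100% = reference inhibitor wells; whole bacteria with a GFP reporter of the hypoxia response; strong numbers were not always called active; many hits fall short of the cut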
ugtP null kill: kills S. aureus RN4220 lacking UgtP | actives 0.54% (n = 330,000) | AID 1259309 | growth inhibition, % (concentration not given with the values) | S. aureus RN4220 ugtP deletion, OD600 growth, 16 h; some inactives read as strong as hits;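 active = z-score under -3 and OD600 up to 0.15 on both plates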;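 note: plate controls were untreated wells for no effect and antibiotic for full effect; wells of about 80 µL received 100 nL stock; the first replicate is given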
Bead autofluor: compound fluorescence in toxin protease inhibitor counterscreen; compound autofluorescence counterscreen, microsphere flow cytometry; stronger effect = higher value; fluorescence intensity (no concentration beside the values); actives 3.1% (n = 360,000); AID 624483;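 active = at least 3 SD above the mean of all compounds, about 16000 in these data; inconclusive = too few beads counted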;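 note: 100 nL of 1 mM stock went into each well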
RN4220 kill: S. aureus RN4220 growth inhibition | OD600, 16 h | inhibition, % (no concentration beside the values) | actives 0.33% (n = 330,000) | AID 1259311;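 active = z-score of -3 or lower and OD600 up to 0.18 on both plates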;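 note: plate controls were untreated cells for no effect and reference antibiotic for full effect; stock transfer was 100 nL into about 80 µL; one replicate is shown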
Mtb hypoxia inh growth: recorded beside Mtb hypoxia inh, whose call it bears; growth inhibition, %; measured here: M. tuberculosis growth (absorbance);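 0% = vehicle and 100% = reference antibiotic; read after six days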
* hit, by the source's call; ? = inconclusive; / = no result given.

mol	Bead autofluor	Mtb hypoxia inh	BJeLR lethal	ugtP null kill	RN4220 kill	PrP 5UTR inh	Mtb hypoxia inh growth
c1ccc(CSc2nnc(-c3ccco3)n2Cc2ccccc2)cc1	5832	/	-1.4	-3.7	3.6	-98.8	/
COc1cc(/C=N/NC(=S)NCCN2CCOCC2)ccc1O	2471	/	16.8	/	/	-15.8	/
CC(=O)c1ccc(NC(=O)CON=C(C)c2cccs2)cc1	/	3.9	/	1.9	-2.0	/	8.8
CCCCC(=Nc1ccccc1OC)C1=C(O)CC(c2ccccc2)CC1=O (configuration not stated)	2292	-2.9	14.8	15.6	-13.6	-45.3	0.6
S=c1[nH]ncn1/N=C/c1ccc(Br)cc1	3991	/	-2.3	/	/	-12.4	/
O=C(c1ccc2nc(N3CCOCC3)sc2c1)N1CCC(Cc2ccccc2)CC1	5240	-5.2	0.2	-12.7	-4.5	-10.3	11.8
N#Cc1ccccc1S(=O)(=O)N1CCN(S(=O)(=O)c2ccc(Br)c(C(=O)O)c2)CC1	3337	-6.8	0.9	13.2	4.6	-6.2	6.6
Cc1ccccc1CSCC(=O)N/N=C/c1cccs1	2503	/	9.3	/	/	25.6	/
COc1cc(C=Nn2c(-c3n[nH]c4c3CCC4)n[nH]c2=S)cc(OC)c1O	/	13.3	/	1.5	3.5	/	11.1
CN(C(=O)c1cccc(NC(=O)Cc2ccc(NC(=O)C3CCCN(C(=O)c4ccccc4)C3)cc2)c1)C1CCC1 (configuration not stated)	3897	-9.2	/	0.9	2.7	-15.9	2.9
Cc1nc(N2CCN(C)CC2)c2c(C)c(C(=O)Nc3ccc(F)cc3)sc2n1	3594	24.4	0.6	-2.7	-15.4	-6.5	8.5
CC(C)c1ccccc1NC(=O)COC(=O)c1cc([N+](=O)[O-])ccc1N1CCOCC1	?	-0.2	3.0	-6.8	2.8	-11.2	2.9
CN(C)S(=O)(=O)n1cc(/C=C(\NC(=O)c2ccccc2F)C(=O)N2CCOCC2)c2ccccc21	3915	1.0	-4.2	4.1	2.9	-14.8	-4.1
CCN(CC)CCN(Cc1cc2cc3c(cc2[nH]c1=O)OCO3)C(=S)NC	3207	-2.5	-10.0	4.9	5.2	-21.6	3.5
CN(C)/C=C/C(=O)c1cccc(Cl)c1	16675*	1.9	-12.4	3.0	2.2	-16.8	-8.3
COc1ccccc1NC(=O)C/C(C)=N/NC(=O)c1ccccn1	3718	/	-4.5	/	/	3.5	/
COc1ccccc1Cn1c(=S)[nH]c2cc(C(=O)NCc3cccnc3)ccc2c1=O	3053	3.2	0.0	2.9	9.0	-16.2	18.7
COc1cc(OC)c2nc(C)c3c(c2c1)N(c1ccc(O)cc1)CC3	4411	/	2.9	/	/	-13.9	/
CC1=C(C(=O)OC(C)C)C(c2cccnc2)n2ncnc2N1 (configuration not stated)	5870	3.6	3.3	-4.3	-8.0	-27.0	5.7
CC(=O)c1ccc(N=Nc2ccc(N(C)C)cc2)cc1	1981	9.1	1.2	-3.8	23.0	5.2	1.3
CC(NC(=O)CNC(=O)C1CCCCC1)c1cccc(Cl)c1 (configuration not stated)	5665	-9.0	-7.6	8.2	-2.3	-15.3	0.6
CN1CCN(c2c(C#N)c(C(F)(F)F)nn2C)CC1	2587	10.5	7.1	4.3	2.4	-12.5	2.6
COc1ccc(C=NNC(=O)c2ccc(NC(=O)c3cccc([N+](=O)[O-])c3)cc2)c(C(=O)O)c1OC	/	5.7	/	2.5	-0.1	/	-0.9
Cc1ccc(S(=O)(=O)Nc2ccc(Cl)cc2)cc1NC(=O)c1cc2c(s1)CCCC2	9043	/	16.0	/	/	-35.6	/
Cc1ccc(NC(=O)CSCC(=O)Nc2cc(S(=O)(=O)N3CCOCC3)ccc2OC(C)C)cc1	2901	-4.6	/	-5.9	-1.9	11.0	-6.4
Nc1cc([N+](=O)[O-])ccc1N1C(=O)CCCC1=O	4106	6.8	-0.2	0.6	1.8	-20.3	9.1
Cc1ccc(N(CC(=O)NN=Cc2ccco2)S(=O)(=O)c2ccccc2)cc1	/	1.4	/	1.9	8.2	/	2.4
CCC(=O)Nc1cc(C(=O)OCC(=O)c2ccccc2Cl)ccc1C	20188*	2.2	0.8	-1.8	0.3	-49.1	10.7
CC1CC(C)CN(CCOc2ccc(Br)cc2)C1 (configuration not stated)	2561	-4.0	-3.8	-0.1	-5.9	-9.1	-5.5
COc1cc(NC(=S)NC(=O)c2ccc(C(C)(C)C)cc2)ccc1NC(=O)c1cccs1	2298	-0.6	33.3	-1.8	-0.9	37.5	7.8
COc1cccc(C=NNC(=O)CC2C(=O)NN=C2C)c1O (configuration not stated)	/	-0.9	/	-1.5	-1.5	/	-2.2
O=C(NC(Cc1ccccc1)C(=O)N1CCc2ccccc2C1)c1ccccc1 (configuration not stated)	3961	1.9	-3.4	3.5	0.0	-49.3	0.6
COC(=O)C1=C(NC(=O)CCCCl)CCS1	2134	5.7	-6.4	-1.6	1.3	-19.2	12.7
COc1cc(OC)cc(-c2nnc(SCc3ccc(C(=O)O)cc3)o2)c1	3798	11.5	0.3	1.0	-3.4	-4.3	-0.1
COc1ccc(/C=C2\SC(=O)N(CCC(=O)N3CCN(C)CC3)C2=O)cc1	3545	0.2	-4.1	3.3	5.5	-1.2	17.9
COc1ccc(OCCCC(=O)N(CCC2=CCCCC2)c2c(N)n(Cc3ccccc3)c(=O)[nH]c2=O)cc1	?	0.2	-11.7	-0.1	6.7	-0.1	6.9
CC(NC(=O)C1CC1)C(c1cccs1)N1CCN(c2ccccc2)CC1 (configuration not stated)	6136	5.3	-6.0	4.3	-10.8	-12.2	12.2
Cc1ccc(/C(N)=N/OC(=O)c2ccc(C)cc2Cl)cc1	2522	9.8	-13.4	18.8	-6.2	39.8	4.0
CCC1CCCCN1CCNC(=O)CCS(=O)(=O)c1ccc(Br)cc1 (configuration not stated)	11492	0.3	4.0	3.5	1.3	-12.4	8.2
O=C(N/N=C/c1cccnc1)C(O)c1ccccc1 (configuration not stated)	2167	/	-4.6	/	/	-11.6	/
Cc1ccc(C(=O)NNC(=O)C2CC2)cc1Br	4039	5.4	5.9	8.3	5.3	-10.2	5.8
CCOC(=O)C1C2COc3ccc(C)cc3C2N2C(=O)CN(Cc3ccco3)C(=O)[C@@]12C (some centres not stated)	/	9.4	/	-11.7	1.2	/	4.5
Cc1cccc(OS(=O)(=O)NC(=O)OCC2CCCN3CCCCC23)c1 (configuration not stated)	4588	-6.8	-2.6	-4.7	0.9	-15.3	-3.4
Oc1ccc2ccccc2c1N=Nc1nccs1	2520	18.3	77.1*	10.7	9.6	/	2.3
O=C(COc1ccc(-n2cnnn2)cc1)Nc1cc(Cl)cc(Cl)c1	?	-0.1	/	-28.3	-9.2	7.2	-1.5
CCOc1ccc(C(=O)Nc2ccc(CN3CCOCC3)cc2)cc1Br	?	6.7	-3.6	4.9	2.7	-11.4	12.8
Cn1c(C(=O)N2CCN(c3ncccn3)CC2)cc2c(=O)n(C)c3ccccc3c21	5596	/	-1.5	13.3	2.1	-24.0	/
N#Cc1nc(-c2ccc(Cl)cc2)oc1NCc1ccco1	3900	/	-8.5	7.3	-5.8	-60.4	/
O=C1c2ccccc2S(=O)(=O)c2cc(N3CCC4(CC3)OCCO4)ccc21	/	7.5	-2.8	-2.7	-14.0	/	2.4
COc1cc(S(=O)(=O)N2CCC(c3nc4ccccc4s3)CC2)ccc1S(=O)(=O)N1CC(C)CC(C)C1 (configuration not stated)	9222	-2.1	-2.5	1.7	1.5	-15.3	-5.8
O=C(NCC(O)c1ccccc1)c1ccc(Cl)c(S(=O)(=O)N2CCCC2)c1 (configuration not stated)	4768	9.2	7.8	11.5	5.8	-24.2	-7.4
COc1cccc(C(=O)Nc2c(C)nn(-c3ccccc3)c2C)c1	2537	5.2	2.6	-0.3	2.6	-8.2	13.3
CC(O)C1CNC(=O)C(=O)N1CC(C)(C)C (configuration not stated)	/	19.9	/	1.2	8.7	/	6.8
CCOC(=O)C(C)Oc1cccc2c(=O)n(CC(=O)NCc3ccccc3)ccc12 (configuration not stated)	4648	18.1	36.3	10.4	-0.4	75.4*	3.1
Oc1ccc(C=NNc2nc3ccccc3s2)c(O)c1	3664	18.2	/	-13.2	9.5	-70.2	10.7
COc1ccc(-c2nnc(SCC(=O)N3CCOCC3)n2C)cc1OC	4589	4.3	-7.2	7.0	1.9	-27.4	1.8
CC(C)CC(N=Cc1c(O)c2ccccc2oc1=O)C(=O)O (configuration not stated)	2200	-12.8	2.9	-2.7	0.3	-24.8	5.1
CCOc1ccc(Br)cc1C=NO	/	22.4	/	15.4	6.0	/	7.9
Cc1ncc(C[n+]2ccc(C)c(C)c2)c(N)n1	3839	1.2	2.2	-1.2	4.1	-8.8	8.1
Cc1ccc(N2C(=O)C3C4C=CC(CNC(=S)N5CCN(c6ccccn6)CC5)(O4)C3C2=O)cc1 (configuration not stated)	5273	/	7.9	/	/	-28.3	/

2 entries from above, as labelled records:
SMILES: CN1CCN(c2c(C#N)c(C(F)(F)F)nn2C)CC1
  Bead autofluor: 2587
  Mtb hypoxia inh: 10.5
  BJeLR lethal: 7.1
  ugtP null kill: 4.3
  RN4220 kill: 2.4
  PrP 5UTR inh: -12.5
  Mtb hypoxia inh growth: 2.6
SMILES: COc1ccc(C=NNC(=O)c2ccc(NC(=O)c3cccc([N+](=O)[O-])c3)cc2)c(C(=O)O)c1OC
  Bead autofluor: /
  Mtb hypoxia inh: 5.7
  BJeLR lethal: /
  ugtP null kill: 2.5
  RN4220 kill: -0.1
  PrP 5UTR inh: /
  Mtb hypoxia inh growth: -0.9

Grouped by structure, the compounds so far with a tert-butyl group (2)
mol	Bead autofluor	Mtb hypoxia inh	BJeLR lethal	ugtP null kill	RN4220 kill	PrP 5UTR inh	Mtb hypoxia inh growth
COc1cc(NC(=S)NC(=O)c2ccc(C(C)(C)C)cc2)ccc1NC(=O)c1cccs1	2298	-0.6	33.3	-1.8	-0.9	37.5	7.8
CC(O)C1CNC(=O)C(=O)N1CC(C)(C)C (configuration not stated)	/	19.9	/	1.2	8.7	/	6.8

Next part.
mol	Bead autofluor	Mtb hypoxia inh	BJeLR lethal	ugtP null kill	RN4220 kill	PrP 5UTR inh	Mtb hypoxia inh growth
Cc1cccc(NS(=O)(=O)c2ccc3c(c2)CCN3C(=O)CCC(=O)O)c1	3916	-0.4	1.9	19.4	-1.4	/	9.9
COC(CNS(=O)(=O)c1ccc(Cl)cc1)c1ccccc1 (configuration not stated)	3089	-1.5	-2.4	4.0	1.7	-0.9	-6.9
Cc1ccc(C(=O)NNC(=S)Nc2cccc3ccccc23)s1	3292	/	-8.9	1.5	2.9	-6.6	/
COc1nc(OC)nc(N(C)CCO)n1	2472	/	-3.4	7.9	-1.9	-22.6	/
Cc1ccc(NC(=O)C2CC(=O)N(c3ccc4c(c3)OCCO4)C2)cc1S(=O)(=O)N(C)C (configuration not stated)	5559	6.7	3.9	-2.1	0.7	-10.9	7.9
CN(C)C(=O)CSc1nnc(-c2cccs2)n1-c1ccccc1	4817	12.8	-7.3	0.4	5.4	-30.6	12.6
O=c1c2ccccc2cnn1Cc1n[nH]c(=S)n1-c1ccc(Cl)cc1Cl	/	6.3	-6.3	6.1	6.0	/	8.8
O=C(NN=Cc1cccc(Cl)c1)C1CCCC1	/	4.3	/	-1.4	8.6	/	0.5
CCC(=O)Nc1cccc(NC(=S)NC(=O)c2ccccc2C)c1	3410	4.4	-3.8	0.5	6.0	-70.3	6.8
CC1CCN(c2ccc(NC(=O)c3ccc([N+](=O)[O-])o3)cc2)CC1	6574	/	2.2	21.0	0.9	-7.4	/
CCCCCCNC(=O)c1cc(S(=O)(=O)N2CCc3ccccc32)ccc1F	2854	6.7	-0.1	1.7	1.4	-21.0	0.4
Cc1nonc1-c1csc(N)n1	4306	-6.2	0.8	3.9	1.9	-2.3	-14.2
CCOc1ccc(NC(=O)c2nn(C)c(C(=O)Nc3ccc(OCC)cc3)c2[N+](=O)[O-])cc1	4313	4.6	-7.5	13.5	0.9	-31.2	-0.1
CC1CCC/C=C/C(=O)c2c(O)cc(O)cc2CC(=O)O1 (configuration not stated)	5801	/	25.9	/	/	1.5	/
COc1ccc(C=NNC(=O)c2c([N+](=O)[O-])c(C)nn2C)cc1	/	-4.7	/	11.8	-2.3	/	-4.9
CC(=O)N1CCN(c2ccc(NC(=O)c3ccc4ccccc4c3)cc2)CC1	5144	5.9	0.7	3.9	5.4	-28.0	9.5
